Screening data from PubChem.
GLA inh pH 4.5 = alpha-galactosidase A (human) inhibition, pH 4.5; purified enzyme, 4-MU-alpha-Gal fluorescence, pH 4.5; activity change, negative = inhibition, % at 105 µM; 230,000 tested, under 10 active; inconclusive = small, poorly fitted or top-dose-only inhibition, or a rising curve; inactive = flat fitted curve, though single readings scatter; no compound was filed as active;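 note: 0% = full activity with enzyme and -100% = basal without enzyme; dose as in the result columns while the protocol names 77 µM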
Target sequence (P06280 whole entry, looked up): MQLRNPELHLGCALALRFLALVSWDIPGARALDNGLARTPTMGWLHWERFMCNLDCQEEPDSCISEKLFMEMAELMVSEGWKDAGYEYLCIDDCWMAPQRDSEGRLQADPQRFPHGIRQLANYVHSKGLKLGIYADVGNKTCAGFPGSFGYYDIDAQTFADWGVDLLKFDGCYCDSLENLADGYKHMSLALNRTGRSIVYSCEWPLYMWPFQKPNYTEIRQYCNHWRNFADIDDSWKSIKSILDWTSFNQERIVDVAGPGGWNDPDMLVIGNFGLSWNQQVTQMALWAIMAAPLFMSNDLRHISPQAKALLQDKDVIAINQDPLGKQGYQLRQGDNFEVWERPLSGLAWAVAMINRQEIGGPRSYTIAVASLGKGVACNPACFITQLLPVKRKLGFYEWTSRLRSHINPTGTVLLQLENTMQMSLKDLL
* hit, by the source's call; u = inconclusive; & = joins results of further samples. Some of the compounds tested, so the mix of outcomes need not match the whole.

SMILES	GLA inh pH 4.5
CCCCCCCCc1[se]c2ccccc2c1I	1
C[C@@]12C=CC(=O)C=C1CCC1C2CC[C@]2(C)C(=O)CCC12 (stereo not given in full)	-3
CCN1C[C@]2(C)CC[C@H](OC)[C@@]34[C@H]1C1(OCO[C@@]15C[C@H](OC)C1C[C@]3(O)C5[C@H]1OC)[C@@H](O)[C@H]24	-2
Oc1ccc2c3c1O[C@H]1c4c(c5ccccc5n4Cc4ccccc4)C[C@]4(O)[C@H](C2)N(CC2CC2)CC[C@@]314	-4
Clc1ccc(CO[C@@H](Cn2ccnc2)c2ccc(Cl)cc2Cl)cc1	4
COC(=O)/C=C\C(=O)N[C@@H]1CC[C@@]2(O)[C@H]3Cc4ccc(O)c5c4[C@@]2(CCN3CC2CC2)[C@@H]1O5	-3
COC(=O)[C@@H]1C[C@@]2(O)[C@@H](O)[C@@H](O)[C@@H](O)C[C@H]2N1Cc1cccnc1	-5
NC(CCP(=O)(O)O)C(=O)O (stereo not given)	2
CC(=O)O[C@H]1[C@H]2[C@@H](OC(=O)Cc3ccccc3)[C@@H](C)C[C@]2(OC(C)=O)C(=O)/C(C)=C/[C@@H]2[C@H](CC[C@@]13CO3)C2(C)C	-15
CCCC(C)C1(CC)C(=O)NC(=O)NC1=O (stereo not given)	6

Gathered by group: the entries above containing a halogen (2)
SMILES	GLA inh pH 4.5
CCCCCCCCc1[se]c2ccccc2c1I	1
Clc1ccc(CO[C@@H](Cn2ccnc2)c2ccc(Cl)cc2Cl)cc1	4

(more compounds)
SMILES	GLA inh pH 4.5
CCCCC/C=C\C/C=C\C/C=C\C/C=C\CCCC(=O)NCCCl	-14
CCC(C)C(=O)OC1C[C@@]2(C)C(c3ccoc3)OC(=O)CC23OC2(C)OC34C(OC(=O)C(C)C)[C@]3(O)C(OC(=O)C5(C)OC5C)[C@]5(C)CC3(O)[C@](C)(C5CC(=O)OC)C14O2 (stereo not given in full)	-19
O=c1c(O)c(-c2ccc(O)c(O)c2)oc2c(O)c(O)cc(O)c12	-1
CCS(=O)CCSP(=O)(OC)OC (stereo not given)	4
C=C(C)[C@]12C[C@@H](C)[C@@]34O[C@](Cc5ccccc5)(O[C@@H]1[C@@H]3C=C(COC(=O)Cc1ccc(O)c(OC)c1)C[C@]1(O)C(=O)C(C)=C[C@@H]41)O2	-25
CC(=O)c1c(O)c(C)c(O)c(Cc2c(O)c3c(c(C(=O)/C=C\c4ccccc4)c2O)OC(C)(C)C=C3)c1O	-8
CN1CC[C@@H]2CN3CCc4cccc(c43)[C@H]2C1	-6
ClC1=C(Cl)C2(Cl)C3C4CC(C5OC45)C3C1(Cl)C2(Cl)Cl (stereo not given)	-1
CC(=O)OC1CC2C(C)(C)C(O)C=C[C@@]2(C)C2CC[C@]3(C)C(=CC(=O)OC3c3ccoc3)[C@]12C (stereo not given in full)	4
C[C@@H](Cc1ccccc1)NCCC(c1ccccc1)c1ccccc1	0

Structures from the list above with a furan ring, fused or not, in the order listed:
SMILES	GLA inh pH 4.5
CCC(C)C(=O)OC1C[C@@]2(C)C(c3ccoc3)OC(=O)CC23OC2(C)OC34C(OC(=O)C(C)C)[C@]3(O)C(OC(=O)C5(C)OC5C)[C@]5(C)CC3(O)[C@](C)(C5CC(=O)OC)C14O2 (stereo not given in full)	-19
CC(=O)OC1CC2C(C)(C)C(O)C=C[C@@]2(C)C2CC[C@]3(C)C(=CC(=O)OC3c3ccoc3)[C@]12C (stereo not given in full)	4

(next part)
SMILES	GLA inh pH 4.5
CC1CC[C@]2(NC1)OC1CC3C4CC=C5CC(O)CC[C@@]5(C)C4CC[C@]3(C)C1C2C (stereo not given in full)	4
C#C[C@@]1(O)CC[C@@H]2[C@@H]3CCC4=CC(=O)CC[C@@]4(C)[C@H]3CC[C@]21C	3
O=C(Cc1ccc(Cl)c(Cl)c1)N1CCCC[C@H]1CN1CCCC1	-2
CC(C)(O)C1C2OC(=O)C1[C@]1(O)C[C@H]3O[C@]34C(=O)O[C@H]2[C@]14C (stereo not given in full) (tested in a mixture with another compound)	-1
C=CC[C@]1(O)CCC2C3CCC4=CCCCC4C3CCC21C (stereo not given in full)	-14
CCCCC/C=C\C/C=C\C/C=C\C/C=C\CCCC(=O)NCCCC(=O)O	u
COC(=O)C1(O)CC2OC1(C)n1c3ccccc3c3c4c(c5c6ccccc6n2c5c31)C(=O)NC4 (stereo not given)	-9
CC1OC(C)OC(C)O1 (stereo not given)	-9
c1cc2c(cc1[C@H]1OC[C@@H]3[C@H]1CO[C@H]3c1ccc3c(c1)OCO3)OCO2	-1
C[C@@H](Cc1cccc(C(F)(F)F)c1)NCCCc1ccccc1	-21

Grouped by structure: the compounds so far with a COOH group.
SMILES	GLA inh pH 4.5
NC(CCP(=O)(O)O)C(=O)O (stereo not given)	2
CCCCC/C=C\C/C=C\C/C=C\C/C=C\CCCC(=O)NCCCC(=O)O	u

Next section
SMILES	GLA inh pH 4.5
O=C(O)[C@@H]1Cc2[nH]cnc2C(c2cccnc2)N1 (stereo not given in full)	-2
COC(=O)C1=CO[C@@H](C)[C@@H]2CN3CCc4c([nH]c5cc(OC)ccc45)[C@@H]3C[C@H]12	-7
C[C@]1(C(=O)O)CCC[C@]2(C)c3cc(O)ccc3CC[C@@H]12	3
O=[N+]([O-])c1ccc(-c2[se]c3ccccc3c2I)cc1	0
CC(C)N(CC[C@@](C(N)=O)(c1ccccc1)c1ccccn1)C(C)C	-1
O=C(N[C@H]1CN2CCC1CC2)c1ccc(Cl)cc1	-2
O=C(O)/C=C\CO	-5
C=C(C)[C@H]1CN[C@H](C(=O)O)[C@@H]1CC(=O)O	6
CCNc1nc(Cl)nc(NCC)n1	5
CN1C2CCC1CC(C(=O)OC(CO)c1ccccc1)C2 (stereo not given)	0
CCCN1CCc2cccc3c2C1Cc1ccc(O)c(O)c1-3 (stereo not given)	-6
CO[C@@H](C)[C@](O)(C(=O)OCC1=CCN2CC[C@@H](O)[C@H]12)C(C)C	8
CN1C(=O)CCS(=O)(=O)[C@@H]1c1ccc(Cl)cc1	-3
CC/C=C\C/C=C\C/C=C\C/C=C\C/C=C\CCCC(=O)NCC(=O)O	-1
Clc1ccc(N2CC3CCC(C2)N3)nn1	1
COc1cc2c(cc1OC)[C@@]13CCN4CC5=CCOC6CC(=O)N2C1[C@H]6[C@@H]5C[C@@H]43 (stereo not given in full)	6
CN[C@@H](C)[C@H](O)c1ccccc1	-17
NC(=NCc1ccc(Cl)cc1)SCCCc1cnc[nH]1	1
CC(=O)O[C@H]1CC[C@@]2(C)C(=CC[C@@H]3[C@H]2CC[C@]2(C)C(=O)CC[C@H]32)C1	4
COc1ccc(C(=O)c2c(C)n(CCN3CCOCC3)c3cc(I)ccc23)cc1	-13
O=C1C2CCN(CC2)C1(CO)CO	2&3
CCC1/C=C/C=CCC(C)C(O)[C@@](C)(O)C(=O)C(C)C(O)C(C)C(=O)C(C)C(O)C(C)C=CC(=O)O[C@H]2C(C)C(CC1)O[C@]1(CCC(C)C(CC(C)O)O1)C2C (stereo not given in full)	u
COc1ccc2c(c1)[C@@]13CCCC[C@H]1[C@@H](C2)NCC3	4
C(=C/c1ccccc1)/CN1CCN(CCOC(c2ccccc2)c2ccccc2)CC1	-12
c1ccc2c(c1)sc1ccccc12	-13
COc1ccc2c(c1O)-c1c(OC)c(OC)cc3c1[C@@H](C2)N(C)CC3	1
COC(=O)N1CCN(C(=O)Cc2ccc(Cl)c(Cl)c2)[C@H](CN2CCCC2)C1	-3
CC1=C2[C@@H]3OC(=O)[C@@H](C)[C@@H]3CC[C@]2(C)C=CC1=O	0
CC(C)N1C(=O)c2ccccc2NS1(=O)=O	-8
O=c1cccc2n1CC1CC2CN(CCO)C1 (stereo not given)	4
CC(C)(Cc1c[nH]c2ccc(Cl)cc12)NCCOc1ccccc1OCC1CC1	-15
O=C1c2ccccc2C(=O)c2ccccc21	2
CCCCCCCCCCCCCCCCOC[C@H](COP(=O)([O-])OCC[N+](C)(C)C)OC(C)=O	5
CNc1ccc(C(=O)CC(O)CCC(C)C2OC(=O)CC(O)CC(=O)CC(O)CC(O)CC(O)CC(O)CC3(O)CC(O)C(C(=O)OC)C(CC(O[C@@H]4OC(C)C(O)C(N)C4O)/C=C/C=C/C=C/C=C/C=C/C=C/C=C/C2C)O3)cc1 (stereo not given in full)	-3
CCN1C[C@@]2(COC)C3[C@@H](OC)C4[C@@H]1[C@@]3(C1C[C@@]3(O)[C@H](OC(=O)c5ccccc5)C1[C@]4(OC(C)=O)[C@@H](O)[C@@H]3OC)[C@@H](OC)C[C@H]2O (stereo not given in full)	2
COc1ccc(CC2NC[C@H](O)[C@H]2OC(C)=O)cc1 (stereo not given in full)	3
CC(C)[C@@]1(NC(=O)[C@@H]2C[C@H]3c4cccc5[nH]cc(c45)C[C@@H]3N(C)C2)O[C@@]2(O)[C@H]3CCCN3C(=O)[C@H](Cc3ccccc3)N2C1=O	-3&-8
CN1Cc2c(ccc3c2OCO3)C2C(O)Cc3cc4c(cc3C21)OCO4 (stereo not given)	-1&0
Cc1nc(N)sc1CCN	2
NC(CP(=O)(O)O)C(=O)O (stereo not given)	-11
N[C@H](Cc1o[nH]c(=O)c1Cl)C(=O)O	-4
O=C1Nc2ccccc2C2(CCN(CCc3ccc(C(F)(F)F)cc3)CC2)O1	-17
CNCC/C=C\c1cccnc1	2
O=c1oc2ccccc2c(O)c1C(c1ccccc1O)c1c(O)c2ccccc2oc1=O	-12
C#C[C@]1(O)CC[C@H]2[C@@H]3CCC4=CC(=O)CCC4(C)[C@H]3CCC21C (stereo not given in full)	0
C/C=C1/CN2CC[C@]34C(=C(C=O)[C@@H]1C[C@H]23)Nc1c(O)cccc14	-3
Cc1ccc(C[N+](C)(C)C)o1	4&-9
CCC1(c2ccccc2)C(=O)NC(=O)N(C)C1=O (stereo not given)	-15
C=CCc1ccc2c(c1)OCO2	9
C/C=C1/C[C@@H](C)[C@](O)(CO)C(=O)OCC2=CCN3CC[C@@H](OC1=O)C23 (stereo not given in full)	2
Additional records
SMILES	GLA inh pH 4.5
C/C=C(/C)C(=O)O[C@H]1C(C)=C2[C@H]([C@@H]1OC(=O)CCCCCCC)[C@@](C)(OC(C)=O)C[C@H](OC(=O)CCC)[C@@]1(O)[C@H]2OC(=O)[C@@]1(C)O	u
CC1(C)N([O-])[N+](=O)C1(C)Br (stereo not given)	10
CC(=O)OC1C2CCC3C1(CC(O)[C@@]1(O)[C@@H](CC(O)C1(C)C)[C@]3(C)O)C[C@@]2(C)O (stereo not given in full)	1
O=[N+]([O-])c1ccc(O[C@@H]2O[C@H](CO)[C@@H](O)[C@H](O)[C@H]2F)c([N+](=O)[O-])c1	-3
Ic1cncc(OC[C@@H]2CCN2)c1	11
COc1ccc(-n2nc(C(F)(F)F)cc2-c2ccc(Cl)cc2)cc1	-9&-8
O=C(O)CNCP(=O)(O)O	4
CCCCCOc1c(OC)ccc2cc(C(=O)NCc3ccc4c(c3)OCO4)c(=O)[nH]c12	-17
CN1[C@@H]2CC[C@H]1CC(OC(=O)c1cc(Cl)cc(Cl)c1)C2 (stereo not given in full)	-2
Nc1ncnc2c1ncn2[C@@H]1O[C@@H]2CO[P@](=O)(S)O[C@H]2[C@H]1O	3
CC(=O)OC[C@]12C[C@H](OC(=O)CC(C)C)C(C)=C[C@H]1O[C@H]1[C@H](O)[C@@H](OC(C)=O)[C@@]2(C)[C@]12CO2	3
CN(CCC(N)CC(=O)NC1C=CC(n2ccc(N)nc2=O)OC1C(=O)O)C(=N)N (stereo not given)	-8
CC(=O)C1CC[C@H]2C3CC[C@@H]4CC(O)CC[C@@]4(C)C3CC[C@]12C (stereo not given in full)	-4
C=C1C(O)C2OC3(CCC(/C=C/C(C)C4CC(C)=CC5(OC(CC(C)(O)C(=O)O)CCC5O)O4)O3)CCC2OC1C(O)CC(C)C1OC2(CCCCO2)CCC1C (stereo not given)	-8
O=C(O)[C@@H]1CCN1	-7
CC(Cc1ccc(OCC(=O)O)cc1)NCC(O)c1cccc(Cl)c1 (stereo not given)	-2
CC(C)[C@@]1(NC(=O)[C@@H]2C[C@H]3c4cccc5[nH]cc(c45)C[C@@H]3N(C)C2)O[C@]2(O)[C@H]3CCCN3C(=O)[C@H](Cc3ccccc3)N2C1=O	2
CN1Cc2ccccc2[C@@H]2c3cccc4[nH]cc(c34)C[C@H]21	5
CC[C@]1(O)C(=O)OCc2c1cc1n(c2=O)Cc2cc3ccccc3nc2-1	u
CC1CCCC(=O)CCC/C=C/c2cc(O)cc(O)c2C(=O)O1 (stereo not given)	6

Some values from the results shown:
GLA inh pH 4.5, CC1CCCC(=O)CCC/C=C/c2cc(O)cc(O)c2C(=O)O1 (stereo not given) : 6
GLA inh pH 4.5, CC(C)[C@@]1(NC(=O)[C@@H]2C[C@H]3c4cccc5[nH]cc(c45)C[C@@H]3N(C)C2)O[C@]2(O)[C@H]3CCCN3C(=O)[C@H](Cc3ccccc3)N2C1=O : 2
GLA inh pH 4.5, CC(Cc1ccc(OCC(=O)O)cc1)NCC(O)c1cccc(Cl)c1 (stereo not given) : -2
GLA inh pH 4.5, CC(=O)OC[C@]12C[C@H](OC(=O)CC(C)C)C(C)=C[C@H]1O[C@H]1[C@H](O)[C@@H](OC(C)=O)[C@@]2(C)[C@]12CO2 : 3
GLA inh pH 4.5, CC(=O)C1CC[C@H]2C3CC[C@@H]4CC(O)CC[C@@]4(C)C3CC[C@]12C (stereo not given in full) : -4
GLA inh pH 4.5, C=C1C(O)C2OC3(CCC(/C=C/C(C)C4CC(C)=CC5(OC(CC(C)(O)C(=O)O)CCC5O)O4)O3)CCC2OC1C(O)CC(C)C1OC2(CCCCO2)CCC1C (stereo not given) : -8

Next results:
SMILES	GLA inh pH 4.5
CC(C)c1cc2c(c(O)c1O)[C@@]1(C(=O)O)CCCC(C)(C)[C@@H]1CC2	-7
CC(=O)OC1CC2C(C)(C)C(=O)C=C[C@]2(C)C2CC[C@]3(C)C(=CC(=O)OC3c3ccoc3)[C@]12C (stereo not given in full)	-19
O=c1cccc2n1CC1CC2CN2CCCC[C@H]12 (stereo not given in full)	4
O[C@H]1CCCC[C@H]1N1CCC(c2ccccc2)CC1	1&4
CC1=CC(=O)C2=C(C)C[C@@H](O)[C@@H]3[C@@H](OC(=O)[C@H]3C)[C@H]12	7
CC1(C)C(O)CC(O)[C@]2(C)C1CC(O)[C@]1(C)C2CC[C@@]2(C)C(c3ccoc3)CC3OC312 (stereo not given in full)	2
